# CSC inhib – blocks cancer stem cells; inhibition, % at 7.5 µM; cancer stem cell-like cells viability, luminescence; actives 1.1% (n = 300,000);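 active = mean at 75% or more and at least half the replicates too; inconclusive = mean and replicates disagree; tested in HMLE shEcad cells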;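 also: 0% = median of negative and 100% = median of positive control wells; the first replicate is given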
# MT1-MMP act inh – MT1-MMP (human) activation inhibition; actives 0.061% (n = 360,000); P50281; GFP/RFP ratio change, % at 20 µM; HT1080 RFP-PRO-GFP cells, GFP/RFP ratio fluorescence, overnight; percent of plate control window, DMSO zero;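 active = GFP/RFP ratio change of at least 30% with cell ATP level not reduced by more than half and red fluorescence within 50% of control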; also: strong numbers were not always called active
#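 Assay system: HT1080 cells carrying an RFP-PRO-GFP reporter | Dosing: Single dose of 20 µM compound, 1% DMSO final | Incubation: Cells overnight before dosing, compound overnight, 37 °C, 5% CO2 | Evaluation: GFP/RFP fluorescence ratio | Control set: DMSO and RFP-L50D-GFP cell wells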
# eIF4H FP inh – inhibitors of RNA binding by human eIF4H | Q15056 | eIF4H fluorescence polarization binding assay | inhibition, % at 35 µM | actives 0.94% (n = 290,000) | AID 2012;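 active = 50% or more with normal probe brightness, or confirmed in later tests; inconclusive = above 50% with abnormal brightness, or retests that disagree; inactive = below 50% or failed in later tests; about a fifth of its hits are not listed in these tables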;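 also: calls also rest on retests at 20 µM and on dose response follow-up; 0% = protein and probe with vehicle and 100% = probe without protein; strong numbers were not always called active; many hits fall short of the cut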
# PABP FP inh – PABP-poly(A) binding inhibition. P11940. PABP-poly(A) RNA binding, fluorescence polarization. inhibition, % at 35 µM. actives 1% (n = 290,000). AID 2014;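 active = 50% or more with normal probe brightness, or confirmed in later tests; inconclusive = above 50% with abnormal brightness, or retests that disagree; inactive = below 50% or failed in later tests; about a fifth of its hits are not listed in these tables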;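 also: calls also rest on retests at 20 µM and on dose response follow-up; controls were probe without protein and protein plus probe with vehicle; some compounds called inactive have numbers as strong as hits; many hits fall short of the cut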
# Rce1 inh – inhibitors of yeast Ras-converting enzyme. Q03530. yeast membranes, quenched prenylated peptide cleavage fluorescence. calls only. actives 0.27% (n = 290,000);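 active = fall in fluorescence gain of 50% or more versus controls, with final raw signal at or below 3038400; inconclusive = same 50% fall but final raw signal above 3038400; inactive = fall in fluorescence gain under 50%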;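 also: plate controls were neutral control wells for no effect and wells lacking membranes for full effect; tested at 10 µM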
# Target sequence (Q03530 whole entry, looked up): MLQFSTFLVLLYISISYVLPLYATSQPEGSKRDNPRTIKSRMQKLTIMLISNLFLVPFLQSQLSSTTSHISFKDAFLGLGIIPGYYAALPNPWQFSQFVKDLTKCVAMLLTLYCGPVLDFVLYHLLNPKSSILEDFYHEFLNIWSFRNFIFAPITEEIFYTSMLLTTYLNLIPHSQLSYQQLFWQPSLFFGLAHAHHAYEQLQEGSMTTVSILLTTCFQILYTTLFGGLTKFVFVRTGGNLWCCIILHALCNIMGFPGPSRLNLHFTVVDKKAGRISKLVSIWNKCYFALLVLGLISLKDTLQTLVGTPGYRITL
# HIV Env fusion – HIV envelope-mediated fusion inhibition; inhibition, % at 12.3 µM; AID 651610; actives 1.1% (n = 360,000); HeLa-JRFL Env/CEM21 cell fusion, luciferase;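 active = mean replicate inhibition score of at least 50 and every replicate individually at or above 50; inconclusive = only one of the two criteria met; inactive = mean below 50 and not all replicates reaching 50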;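 also: 0% = plate neutral controls and 100% = maraviroc near 300 nM; one replicate is shown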
# UUG fidelity – modulators of start codon recognition fidelity in yeast | S. cerevisiae UUG-firefly luciferase reporter, luminescence/redox ratio | activity score, % at 18.7 µM | actives 0.13% (n = 350,000);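 active = replicate mean at a twofold rise or more, about +100% in these data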;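 also: firefly luciferase made from a UUG start codon reports start codon fidelity; reporter light over untreated wells divided by growth signal over untreated wells; some hits fall short of that in this replicate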
# eIF4H FP inh retest – also measured in eIF4H FP inh; calls as there; inhibition, %; compound at 20 µM; confirmation average;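 mean of two retest wells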
# PABP FP inh retest – further read-out of PABP FP inh, marked with its call; inhibition, %; compound at 20 µM; confirmation repeats;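 mean of two retest wells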
# MT1-MMP act inh RFP – also measured in MT1-MMP act inh; calls as there; RFP signal change, %; measured here: RFP expression control read;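 0 = vehicle wells; hits needed this value within 50% of zero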
# The depositor's hits bear a star; i = inactive; ? = inconclusive; . = not tested or not shown; & = joins results of further samples.
# Start of the listing, in advance:
SMILES,CSC inhib,MT1-MMP act inh,MT1-MMP act inh RFP,eIF4H FP inh,PABP FP inh,Rce1 inh,HIV Env fusion,UUG fidelity,others
O=C(CN1CCN(c2ccccn2)CC1)Nc1ccc(Cl)c(C(F)(F)F)c1,-5,-1,-3,-2,-7,i,.,-2,
COc1ccc(N(Cc2cc3cc(OC)ccc3[nH]c2=O)C(=O)c2cccnc2)cc1,10,0,3,4,-3,.,.,-9,
Cc1nc2c(sc(=S)n2Cc2ccco2)c(=O)n1CC(=O)Nc1cc(F)ccc1F,-3,2,2,-5,-10,i,13,-22,
N#CN(Cc1ccccc1)Cc1ccccc1,0,-3,-1,-5,-9,i,-3,-2,
CN(C)c1cccc(C(=O)N(C)C2CCCN(Cc3ccccc3F)C2)c1 (stereo not drawn),8,2,4,-9,-8,i,22,-17,
CC(C)C[C@H](NC(=O)c1nc[nH]c1C(=O)N1CCN(C(=O)OC(C)(C)C)CC1)C(=O)OC(C)(C)C,51,-2,1,2,-6,i,-9,-12,

# Main list, from the start:
SMILES,CSC inhib,MT1-MMP act inh,MT1-MMP act inh RFP,eIF4H FP inh,PABP FP inh,Rce1 inh,HIV Env fusion,UUG fidelity,others
O=C(CN1CCN(c2ccccn2)CC1)Nc1ccc(Cl)c(C(F)(F)F)c1,-5,-1,-3,-2,-7,i,.,-2,
COc1ccc(N(Cc2cc3cc(OC)ccc3[nH]c2=O)C(=O)c2cccnc2)cc1,10,0,3,4,-3,.,.,-9,
Cc1nc2c(sc(=S)n2Cc2ccco2)c(=O)n1CC(=O)Nc1cc(F)ccc1F,-3,2,2,-5,-10,i,13,-22,
N#CN(Cc1ccccc1)Cc1ccccc1,0,-3,-1,-5,-9,i,-3,-2,
CN(C)c1cccc(C(=O)N(C)C2CCCN(Cc3ccccc3F)C2)c1 (stereo not drawn),8,2,4,-9,-8,i,22,-17,
CC(C)C[C@H](NC(=O)c1nc[nH]c1C(=O)N1CCN(C(=O)OC(C)(C)C)CC1)C(=O)OC(C)(C)C,51,-2,1,2,-6,i,-9,-12,
COc1ccc(/C=C(\NC(=O)c2ccc(OCC(C)C)cc2)C(=O)OCc2ccco2)cc1,5,0,-3,1,6,i,21,.,
O=C(CSc1nnc(NCc2ccccc2)s1)c1ccco1,6,1,1,1,13,i,.,-24,
Cc1ccc2cc(CCNC(=O)CC(C)C)c(=O)[nH]c2c1,4,2,5,3,-9,i,-11,-3,
O=C(Nc1ccc(N2CCCC2)cc1)c1cccc(F)c1,-3,-3,0,1,3,i,-121,-10,
Cn1ncc2cc(NC(N)=S)ccc21,-17,2,6,7,-9,i,-24,-11,
O=c1[nH]c2ccccc2n1Cc1ccc(F)cc1,-9,1,-5,2,-5,i,5,-17,
CC(C)CNC(=O)C1(C)CCCN1Cc1ccc(OC(F)(F)F)cc1 (stereo not drawn),.,-1,-1,.,.,.,0,7,
COc1ccc(OC)c(/C=C2/Sc3ccccc3C2=O)c1,.,-2,11,?,?,i,-27,.,
C=CCn1c(COc2ccccc2)nnc1SCC(=O)Nc1ccc(S(N)(=O)=O)cc1,0,1,3,1,5,i,.,-16,
COc1ccc(-c2nnc(SCC(=O)Nc3c(Cl)cc(Cl)cc3C(=O)O)o2)cc1,-6,2,3,.,.,.,-2,.,
O=C(NCCCN1CCN(c2ccccc2)CC1)C1CCCN(c2ncnc3c2nc2n3CCCCC2)C1 (stereo not drawn),7,3,-9,-12,5,i,7,-31,
Oc1ccc(C=Nc2cccc3ncccc23)c(O)c1,2,-12,1,58,33*,i,-7,6,eIF4H FP inh retest=15;PABP FP inh retest=68*
CCOC(=O)c1cc2n(c1C)-c1ccccc1C2=O,-9,2,2,-4,-6,i,-334,-12,
O=C(O)c1cc(-c2ccc(O)cc2)nc2ccccc12,-6,.,.,6,5,i,.,.,
CCCn1c2c(c(O)c(C(=O)Nc3ncccc3C)c1=O)CCCC2,3,5,1,7,-6,i,11,-9,
CCOc1ncccc1C(=O)OCC(=O)N1c2ccccc2CC1C (stereo not drawn),.,-1,1,.,.,.,3,-33,
CC(C)CC1NC(=O)N(CCCCN2C(=O)c3ccccc3C2=O)C1=O (stereo not drawn),-8,8,5,-8,-6,i,12,.,
O=C(OCc1nnc(-c2ccccc2)o1)C1CCN(S(=O)(=O)c2cccs2)CC1,-2,-2,-2,4,-4,.,2,2,
CN(C)CCO[C@@H](c1ccc(Cl)cc1)c1ccccn1,-4,1,-2,-6,-14,i,4,-26,
O=C(NC1CCCCCC1)c1cccc(N2CCCC2=O)c1,11,-1,-1,-7,-2,.,-4,-28,
Cc1ccc(N(C(=O)CNC(=O)c2ccco2)C(C(=O)NC2CCCC2)c2cccnc2)cc1 (stereo not drawn),-7,0,2,-4,4,i,9,-25,
C[C@H](CO)N1C[C@H](C)[C@H](CN(C)Cc2cccc(F)c2)Oc2ncc(Br)cc2C1=O,.,1,3,.,.,.,-6,7&6&-4,
Cc1ccccc1C(=O)Nc1ccnn1C1CCN(C2CCSCC2)CC1,4,-7,3,33,12,i,-3,-15,
CC1=C(C(=O)OCc2ccccc2)C(c2cccc([N+](=O)[O-])c2)NC(=O)N1CCCCCC(=O)O (stereo not drawn),-6,7,-2,-14,-4,i,15,-16,
O=C(c1ccco1)N1CCN=C1SCc1c(F)cccc1Cl,2,5,9,7,0,i,-19,-9,
O=c1cccc(-c2ccccc2)[nH]1,-9,-3,-3,1,-8,i,27,-8,
CS(=O)(=O)N(Cc1ccccc1)c1ccc(C(=O)NCC2CCCO2)cc1 (stereo not drawn),.,1,4,8,0,i,22,6,
CCCC1(C(=O)OCC)NC(c2ccc(N(C)C)cc2)C2C(=O)N(c3ccc(OCC)cc3)C(=O)C21 (stereo not drawn),6,1,1,-2,3,i,-46,-17,
O=C(CN1CCC(O)(c2cccc(F)c2)CC1)NCCc1c[nH]c2ccccc12,-15,1,5,-5,-8,i,-2,11,
COc1cc2nc(CN(C)Cc3nc4ccccc4c(=O)[nH]3)[nH]c(=O)c2cc1OC,.,-3,-1,3,10,i,-128,-5,
Cc1ccc(NC(=O)CCNS(=O)(=O)c2ccccc2F)cc1S(=O)(=O)N1CCOCC1,-4,-3,-2,.,.,i,8,.,
Cc1cc(=O)[nH]c(SCn2nnc3ccccc3c2=O)n1,1,7,-2,-11,-5,i,6,-14,
CC(C)C(=O)Nc1ccnc(-c2cccnc2)n1,3,-6,-2,3,-5,i,.,-13,
COC(=O)C1C(c2ccccc2)C(C(=O)OCc2ccco2)C1c1ccccc1 (stereo not drawn),0,-8,-6,0,-6,i,.,.,
Cc1ccc2c(c1)N(CC(=O)N(Cc1ccccn1)Cc1ccco1)C(=O)C(C(C)C)O2 (stereo not drawn),-11,2,-3,6,-5,i,-37,0,
Cc1cc2ccccc2c(=O)n1CC(=O)NCC(=O)N1CCCC1,-7,-4,1,0,-1,i,.,-2,
O=C1CCCN1CCCNC(=S)Nc1ccc(Cl)cc1Cl,-7,2,1,4,-7,i,-22,-17,
O=P(CCO)(c1ccccc1)c1ccccc1,0,1,6,2,0,i,17,.,
CN1CCN(Cc2nc3cc(NC(=O)COc4ccc([N+](=O)[O-])cc4)ccc3n2C)CC1,.,1,-6,6,-1,i,-3,-5,
O=[N+]([O-])c1ccc2c(c1)Nc1nc3ccccc3nc1N2,-12,-24,4,-2,3,i,-193,-6,
O=C(CSc1nc2ccccc2s1)NC1CCS(=O)(=O)C1 (stereo not drawn),6,-1,3,-4,-13,i,.,-9,
CCc1ccccc1N(C(C)=O)c1nc(CN=C=S)cs1,7,3,-1,2,-34,i,-12,-4,
CCc1ccc(CNC(=O)C2Cc3cc(S(=O)(=O)N4CCCC4)ccc3N2C(C)=O)cc1 (stereo not drawn),-8,-4,-2,-9,-7,i,-3,-24,
COc1ccc2c3n(nc2c1)CCN=C3c1ccc(C)cc1,14,-1,0,.,.,.,24,-11,

# Compounds from the list above that contain a Cl atom (5):
SMILES,CSC inhib,MT1-MMP act inh,MT1-MMP act inh RFP,eIF4H FP inh,PABP FP inh,Rce1 inh,HIV Env fusion,UUG fidelity,others
O=C(CN1CCN(c2ccccn2)CC1)Nc1ccc(Cl)c(C(F)(F)F)c1,-5,-1,-3,-2,-7,i,.,-2,
COc1ccc(-c2nnc(SCC(=O)Nc3c(Cl)cc(Cl)cc3C(=O)O)o2)cc1,-6,2,3,.,.,.,-2,.,
CN(C)CCO[C@@H](c1ccc(Cl)cc1)c1ccccn1,-4,1,-2,-6,-14,i,4,-26,
O=C(c1ccco1)N1CCN=C1SCc1c(F)cccc1Cl,2,5,9,7,0,i,-19,-9,
O=C1CCCN1CCCNC(=S)Nc1ccc(Cl)cc1Cl,-7,2,1,4,-7,i,-22,-17,

# Remaining list, next part
SMILES,CSC inhib,MT1-MMP act inh,MT1-MMP act inh RFP,eIF4H FP inh,PABP FP inh,Rce1 inh,HIV Env fusion,UUG fidelity,others
COc1cc(NC(=O)c2noc(C)c2[N+](=O)[O-])c(OC)cc1Cl,6,0,4,-9,5,i,-32,-22,
CCS(=O)(=O)N1CCC(C(=O)N2CCOCC2)CC1,-2,5,1,0,2,i,.,-1,
Nc1ncnc2c1ncn2[C@@H]1O[C@H](CNCc2ccc(OCC(=O)Nc3nccs3)cc2)[C@@H](O)[C@H]1O,.,2,4,.,.,.,13,-11,
O=C1CN(C(=O)COC(=O)c2oc3ccccc3c2COc2ccccc2)c2ccccc2N1,5,6,5,-5,-3,i,-59,-19,
COC(=O)c1cn(CC(=O)Nc2ccc(OC)cc2)c2ccccc12,-15,6,2,7,-1,i,-330,-16,
CC(C)(Cc1cc(CC(C)(C)C(=O)O)cc(C(C)(C)C)c1)C(=O)O,-18,2,7,-10,6,i,10,-6,
N=C1/C(=C\c2coc3ccc(O)cc3c2=O)C(=O)N=C2SC=CN12,-7,-25,6,?,?,i,12,.,
O=S(=O)(c1ccc(-c2ccccc2)cc1)N1CCCCC1,-4,4,-3,8,15,i,-3,-9,
CCOC(=O)C1CCN(C(=O)CN(C)S(=O)(=O)c2ccc3c(c2)c(=O)n(C)c(=O)n3C)CC1,-4,-3,0,-10,7,i,7,-3,
COc1ccc2c(c1)N(C)/C(=C1/SC(=NCc3ccccc3)N(c3ccccc3)C1=O)S2,-9,-3,2,-2,8,i,.,.,
C=CCNC(=O)c1c(Cl)cnn1-c1ccc(C)cc1,-9,-3,2,6,-4,.,-31,.,
COc1ccc(COC(=O)c2n[nH]c3ccccc23)cc1F,-3,2,0,-7,3,i,-24,-14,

# Assay outcomes (PubChem)
